M5 ag: agonists of human muscarinic M5 receptor (CHRM5) | CHO-K1 hM5 cells, Fluo-8 calcium fluorescence; 0% DMSO wells, 100% maximal acetylcholine response | activation, % at 3 µM | 360,000 compounds, 0.19% hits | AID 624037;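 active means activation above the run's mean over test compounds plus 3 SD, cut at about 23% in these data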;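 further: signal is peak over basal fluorescence ratio across the kinetic read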
CHRM4 antagonist: blocks acetylcholine activation of human M4 receptor. P08173. CHO-hM4 cells, ACh EC80, Fluo-8 calcium fluorescence. inhibition, % at 3 µM. 360,000 compounds, 0.73% hits. AID 624125;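 active means inhibition above its plate's cutoff, the mean inhibition of sample wells plus 3 SD, cut at about 27% in these data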;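 further: 0% = acetylcholine EC80 with DMSO and 100% = DMSO without agonist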
TAAR1 ag: agonists of human TAAR1. Q96RJ0. CHO RD-HGA16 TAAR1, Fluo-8 calcium fluorescence; vehicle wells 0%, saturating PEA agonist 100%. activation, % at 3 µM. 360,000 compounds, 0.99% hits;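 active means activation above the mean activation of all test compounds in the run plus 3 SD, cut at about 38% in these data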
Target sequence (Q96RJ0 whole entry, looked up): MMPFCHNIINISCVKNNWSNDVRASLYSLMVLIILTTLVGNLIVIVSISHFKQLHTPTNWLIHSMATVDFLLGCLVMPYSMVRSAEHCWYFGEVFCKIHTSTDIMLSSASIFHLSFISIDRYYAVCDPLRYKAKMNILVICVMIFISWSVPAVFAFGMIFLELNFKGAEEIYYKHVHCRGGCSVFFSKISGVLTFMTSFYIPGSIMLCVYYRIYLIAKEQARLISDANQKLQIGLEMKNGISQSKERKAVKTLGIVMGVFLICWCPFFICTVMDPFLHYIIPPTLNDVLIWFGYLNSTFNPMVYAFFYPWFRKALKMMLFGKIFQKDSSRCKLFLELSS
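Test system: RD-HGA16 (CHO) cells co-expressing Gα16 and hTAAR1 / Benchmarks: DMSO vehicle as 0%, PEA at EC100 as 100% / Repeats: no replicates (n 1) / Measure: % activation from peak over basal fluorescence ratio, DMSO-to-PEA scaled / Timing: 17-24 h plating, Fluo-8 75 min 37 °C, 30 min RT / Technique: kinetic Fluo-8 calcium fluorescence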
CHRM5 antagonist: antagonists of human muscarinic M5 receptor (CHRM5) | 360,000 compounds, 0.59% hits | CHO-hM5 cells, Fluo-8 calcium fluorescence, ACh EC80 | P08912 | inhibition, % at 3 µM;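 active means inhibition above a per-plate cutoff, the mean of that plate's test compounds plus 3 SD, cut at about 27% in these data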;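 further: 0% = acetylcholine EC80 with DMSO and 100% = DMSO without agonist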
M5 PAM: positive allosteric modulators of human muscarinic M5 receptor. CHO-K1 hM5, Fluo-8 calcium, ACh EC20 PAM; 0% = ACh EC20, 100% = ACh EC100. activation, % at 3 µM. 360,000 compounds, 0.3% hits. P08912;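 active means activation above the run cutoff, the mean activation of all test compounds plus 3 SD, cut at about 18% in these data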
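Probe or stimulus: acetylcholine, EC20 level; Assay system: human M5 receptor in CHO-K1 cells; Schedule: compound preincubation 140 s before EC20 acetylcholine addition; Technique: intracellular calcium via Fluo-8 fluorescence; Dosing: single-point, 3 µM nominal; Read-out basis: percent activation from peak-over-basal fluorescence ratio, scaled EC20-to-EC100 acetylcholine; Repeats: one well per compound, no replicates.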
* marks the source's active call; other numbers are inactive results; x = no result given; & = joins results of further samples.

SMILES	M5 ag	CHRM4 antagonist	TAAR1 ag	CHRM5 antagonist	M5 PAM
COc1cc2nc(N3CCN(C(=O)[C@@H]4CCCO4)CC3)nc(N)c2cc1OC	1	1	1	-1	2
Oc1ccc2c3c1O[C@H]1[C@@H](O)CC[C@@]4(O)[C@@H](C2)N(CC2CCC2)CC[C@]314	2&0	1&4	2&2	0&0	4&-1
COc1cc2nc(N3CCN(C(=O)C4CCCO4)CC3)nc(N)c2cc1OC (centres undefined)	-1&0	-7&-3	0&2	8&0	-6&-5
c1ccc2c(c1)Nc1ccccc1S2	-2	-11	x	0	1
O=C(O)CCCc1ccc(N(CCCl)CCCl)cc1	0	-8	2	4	-5
c1ccc(Nc2ccc(Nc3ccccc3)cc2)cc1	-1	-3	-1	-2	-1
CCCCC(CC)COC(=O)c1ccccc1C(=O)OCC(CC)CCCC (centres undefined)	0	-7	1	2	-4
CC(Cc1ccc(O)cc1)NCC(O)c1ccc(O)c(O)c1 (centres undefined)	0	2	9	5	-3
C=CCC1([C@@H](C)CCC)C(=O)NC(=O)NC1=O	5	-13	0	-6	5
NC12CN3CN(CN(C3)C1)C2 (tested in a mixture with another compound)	1	7	8	-2	1
CC1OC(OC2CC(O)C3(CO)C4C(O)CC5(C)C(C6=CC(=O)OC6)CCC5(O)C4CCC3(O)C2)C(O)C(O)C1O (centres undefined)	3	-7	2	-2	1
CN1CC[C@]23c4c5ccc(O)c4OC2[C@H](O)C=CC3[C@H]1C5 (some centres undefined)	2	-3	0	-3	-1
Cc1ccc(-c2nc3ccc(C)cn3c2CC(=O)N(C)C)cc1	0	1	6	-1	0

Arranged by SMILES length (lowest first): some entries from above
SMILES	M5 ag	CHRM4 antagonist	TAAR1 ag	CHRM5 antagonist	M5 PAM
NC12CN3CN(CN(C3)C1)C2 (tested in a mixture with another compound)	1	7	8	-2	1
c1ccc2c(c1)Nc1ccccc1S2	-2	-11	x	0	1
c1ccc(Nc2ccc(Nc3ccccc3)cc2)cc1	-1	-3	-1	-2	-1
C=CCC1([C@@H](C)CCC)C(=O)NC(=O)NC1=O	5	-13	0	-6	5
Cc1ccc(-c2nc3ccc(C)cn3c2CC(=O)N(C)C)cc1	0	1	6	-1	0
CCCCC(CC)COC(=O)c1ccccc1C(=O)OCC(CC)CCCC (centres undefined)	0	-7	1	2	-4
COc1cc2nc(N3CCN(C(=O)C4CCCO4)CC3)nc(N)c2cc1OC (centres undefined)	-1&0	-7&-3	0&2	8&0	-6&-5
CN1CC[C@]23c4c5ccc(O)c4OC2[C@H](O)C=CC3[C@H]1C5 (some centres undefined)	2	-3	0	-3	-1
COc1cc2nc(N3CCN(C(=O)[C@@H]4CCCO4)CC3)nc(N)c2cc1OC	1	1	1	-1	2
CC1OC(OC2CC(O)C3(CO)C4C(O)CC5(C)C(C6=CC(=O)OC6)CCC5(O)C4CCC3(O)C2)C(O)C(O)C1O (centres undefined)	3	-7	2	-2	1

Only part of the results is shown; count on the stated rates, not on these rows.
